# EPAC2 ant val: validation of human EPAC2 antagonists | Q8WZA2 | Potency, µM (highest dose often 112 µM), without a hit: at the top dose activity, negative = inhibition, most hits filed as inhibitors | 1.7% of 16,000 active | AID 1645886 | EPAC2 Rap1B BODIPY-GDP exchange, fluorescence; active = well fitted inhibition curve with a large enough effect; inconclusive = small, poorly fitted or top-dose-only effect; inactive = no such curve, though single readings can be large or run the other way;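 note: 100% = activation by cAMP agonist control; nearly all actives have a fitted effect of over 40% in size; the record reuses the description of the EPAC1 agonist screen; inactives centre near -10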
# Target sequence (Q8WZA2 whole entry, looked up): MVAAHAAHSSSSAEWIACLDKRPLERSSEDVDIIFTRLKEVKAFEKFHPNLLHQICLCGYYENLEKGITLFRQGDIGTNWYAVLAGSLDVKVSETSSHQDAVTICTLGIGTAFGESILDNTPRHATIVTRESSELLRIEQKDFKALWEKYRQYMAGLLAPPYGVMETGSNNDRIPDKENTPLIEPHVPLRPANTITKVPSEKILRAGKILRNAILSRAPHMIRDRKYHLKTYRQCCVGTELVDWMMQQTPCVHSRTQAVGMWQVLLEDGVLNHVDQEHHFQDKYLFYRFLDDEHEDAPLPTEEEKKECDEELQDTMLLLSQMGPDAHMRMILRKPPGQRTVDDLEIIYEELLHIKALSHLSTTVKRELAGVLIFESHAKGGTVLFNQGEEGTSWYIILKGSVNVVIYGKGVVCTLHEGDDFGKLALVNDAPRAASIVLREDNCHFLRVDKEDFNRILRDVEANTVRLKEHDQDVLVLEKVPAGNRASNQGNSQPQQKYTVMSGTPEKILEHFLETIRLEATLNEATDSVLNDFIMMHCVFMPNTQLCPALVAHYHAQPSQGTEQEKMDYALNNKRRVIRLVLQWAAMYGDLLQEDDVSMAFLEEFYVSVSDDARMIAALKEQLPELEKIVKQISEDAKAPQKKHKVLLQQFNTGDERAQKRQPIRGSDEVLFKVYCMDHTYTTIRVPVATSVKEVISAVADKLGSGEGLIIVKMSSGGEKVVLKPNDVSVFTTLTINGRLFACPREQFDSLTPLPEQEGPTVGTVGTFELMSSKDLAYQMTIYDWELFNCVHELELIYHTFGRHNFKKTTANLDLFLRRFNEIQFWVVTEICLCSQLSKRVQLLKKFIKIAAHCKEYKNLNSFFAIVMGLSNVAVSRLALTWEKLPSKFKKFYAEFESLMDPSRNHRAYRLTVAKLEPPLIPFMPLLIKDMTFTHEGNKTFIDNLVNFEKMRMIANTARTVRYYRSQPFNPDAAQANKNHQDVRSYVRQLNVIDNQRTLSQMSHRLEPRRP
#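 Fluorescent exchange read-out: 100 nM EPAC2 with 250 nM RAP1B–BODIPY-GDP and 50 uM GDP; BODIPY-GDP release lowers fluorescence. Read at 480/540 nm every 5 min for 30 min at room temperature; normalized to 6.5 mM cAMP.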
# * hit, by the source's call; u = inconclusive; & = joins results of further samples; [ ] = another dose, or the depositor's remark. Potency is the fitted concentration of half-maximal effect. The list is partial; count on the stated rates, not on these rows.
# A first look, 6 compounds:
SMILES,EPAC2 ant val
Nc1nc(SCc2ccc([N+](=O)[O-])cc2)c2ncn([C@@H]3O[C@H](CO)[C@@H](O)[C@H]3O)c2n1,-24%&-13%
COc1cc(C)c(CN2CCC3(CCC(CNC(=O)c4ccnn4C)O3)CC2)cc1C (centres undefined),-5%
CCCCC(C=O)NC(=O)C(CC(C)C)NC(=O)OCc1ccccc1 (centres undefined),u
NCCC(=O)[N-][C@@H](Cc1cnc[nH]1)C(=O)O.[Zn],30%[activator]
c1cncc(-c2cc(-n3ccnc3)ncn2)c1,-32%
Cn1cccc1C(=O)N1CCC2(CC1)CCN(c1cccc(-c3ccccc3)c1)CC2,-12%

# Results, from the first entry:
SMILES,EPAC2 ant val
Nc1nc(SCc2ccc([N+](=O)[O-])cc2)c2ncn([C@@H]3O[C@H](CO)[C@@H](O)[C@H]3O)c2n1,-24%&-13%
COc1cc(C)c(CN2CCC3(CCC(CNC(=O)c4ccnn4C)O3)CC2)cc1C (centres undefined),-5%
CCCCC(C=O)NC(=O)C(CC(C)C)NC(=O)OCc1ccccc1 (centres undefined),u
NCCC(=O)[N-][C@@H](Cc1cnc[nH]1)C(=O)O.[Zn],30%[activator]
c1cncc(-c2cc(-n3ccnc3)ncn2)c1,-32%
Cn1cccc1C(=O)N1CCC2(CC1)CCN(c1cccc(-c3ccccc3)c1)CC2,-12%
C#C[C@]1(O)CC[C@H]2[C@@H]3CCc4cc(OC)ccc4[C@H]3CC[C@@]21C,-3%
COc1cccc(Cn2c(=O)c(CCc3ccccc3)nc3cnc(OC)nc32)c1,-12%
CCCCC(C)(C)[C@H](O)/C=C/[C@H]1[C@H](O)CC(=O)[C@@H]1C/C=C\CCCC(=O)O,-11%[11.4 µM]
COc1ccc(-c2cn(CCc3c[nH]c4ccccc34)nn2)cc1,u
COC(=O)/C=C/c1ccc2c(c1)S(=O)(=O)N(C1CCCC1)[C@H]2CC(=O)OC,19%
O=C(NCO)c1cccnc1,-13%
Nc1cnccn1,-14%
CCCCCCC[n+]1ccc(C)c2ccccc21,-18%
O=C(O)CCNC(=O)c1ccccc1,-21%
COc1cccc(-c2cc(NCCc3c[nH]c4ccc(OC)cc34)ncn2)c1,u
COc1cc(CN2CCCC(n3cc(C(=O)N4CCCCC4)nn3)C2)cc(OC)c1 (centres undefined),-26%
CC(=O)Oc1cc(OC(C)=O)c2c(=O)cc(-c3ccc(OC(C)=O)c(OC(C)=O)c3)oc2c1,-5%
Cc1cc(O)c(C=O)c2c1C(=O)Oc1c(C)c(O)c3c(c1O2)C(O)OC3=O (centres undefined),14%
O=c1cnc2cncnc2n1Cc1ccc(F)cc1,-10%
C[C@@H](Cc1ccccc1)Nc1ncnc2c1ncn2[C@@H]1O[C@H](CO)[C@@H](O)[C@H]1O,0%
Cc1ccc(SC[C@H](Cc2ccccc2)N2CC[C@@H](NC(=O)OCc3ccccc3)CCC2=O)cc1,-19%
CC(=O)O[C@@H]1CC2CCC1(C)C2(C)C (some centres undefined),5%
CCCCCCOc1ccccc1C(N)=O,u
CCCCC/C=C\CC1OC1CCCCCCCC(=O)O (centres undefined),-18%[1.17 µM]

# The results go on.
SMILES,EPAC2 ant val
COc1ccc(CN2CCC3(CC2)c2ccccc2[C@@H](NC(=O)c2ccccc2)[C@@H]3O)cc1O,9%
CC(C)NC(=O)N1CCC2(CC1)CCN(C(=O)c1ccncc1)CC2,-17%
COc1c(O[C@@H]2O[C@H](CO)[C@@H](O)[C@H](O)[C@H]2O)cc2c(c1OC)-c1ccc(SC)c(=O)cc1[C@@H](NC(C)=O)CC2,20%[56.6 µM]
Cc1occc1C(=O)Nc1cccc(-c2nc(CNC(=O)c3cccc(C#CC(C)(C)O)c3)c(C)o2)c1,-18%
CCn1ccnc1C[C@@H]1COc2ccccc2O1,20µM*
C/C=C(\C)C(=O)OC1C(OC(=O)C2(C)OC2C)c2cc3ccc(=O)oc3cc2OC1(C)C (centres undefined),u
CSc1ccccc1C(=O)NCc1nc(-c2cccc(NC(=O)c3ccoc3C)c2)oc1C,-26%
CC(N)(C(=O)O)c1ccc(C(=O)O)cc1 (centres undefined),0%&-3%
C[C@@H]1CN(Cc2ccc3c(c2)CN(Cc2cccn2-c2ccccn2)CCO3)C[C@H](C)O1,-1%
O=C(O)c1cc(=O)c2c(OCC(O)COc3cccc4oc(C(=O)O)cc(=O)c34)cccc2o1,11%&-29%
O=C(O)C[C@H]1c2cc(C(F)(F)F)ccc2S(=O)(=O)N1C1CCCCC1,-26%
C[C@@H]1CN(Cc2ccc3c(c2)CN(Cc2cccc(O)c2)CCO3)C[C@H](C)O1,1%
CC(=O)N1CCC[C@H]1C(=O)NCC1Cc2cc(-c3cnccn3)cc(Cl)c2O1 (some centres undefined),-18%
O=c1c(-c2ccc(O)cc2)coc2cc(O)ccc12,-20%&-2%&-9%&-10%&-17%
CN1C(CCl)Nc2cc(Cl)c(S(N)(=O)=O)cc2S1(=O)=O (centres undefined),-8%
CC(=O)OC1CC2C(C)(C)C(O)CC(O)[C@@]2(C)C2CC[C@@]3(C)C(=CC(=O)OC3c3ccoc3)[C@]12C (some centres undefined),-19%
COc1ccc(OC)c(CN2CCCC(n3cc(C(=O)N4CCCCC4)nn3)C2)c1 (centres undefined),-28%
COc1ccc(Oc2ncc3nc(-c4ccc(Cl)cc4)c(=O)n(C)c3n2)cc1,-10%
C[C@H](N)CCP(=O)(O)O,9%
CCCCCCCCN1[C@@H](CC(=O)OCC)c2ccc(C(F)(F)F)cc2S1(=O)=O,u
O=C(O)c1cc(-c2ccccc2)nc2ccccc12,15%[239 µM]
Cc1cccc(CNc2ncnc3ccc(-c4c(C)noc4C)cc23)c1,-29%
C[C@H]1O[C@@H](O[C@H]2CC[C@@]3(C)[C@H](CC[C@@H]4[C@@H]3C[C@@H](O)[C@]3(C)[C@@H](C5=CC(=O)OC5)CC[C@]43O)C2)C[C@H](O)[C@@H]1O[C@H]1C[C@H](O)[C@H](O[C@H]2C[C@H](O)[C@H](O[C@@H]3O[C@H](CO)[C@@H](O)[C@H](O)[C@H]3O)[C@@H](C)O2)[C@@H](C)O1,12%
COc1ccccc1C1CN(CCNC(=O)C2=CCCC2)Cc2ccccc2O1 (centres undefined),-36%
COC(=O)N1CCC[C@@]2(CCN(c3ccncc3)C2)C1,-21%

# (continued)
SMILES,EPAC2 ant val
CCC(CCC(C)C1CCC2C3CCC4CC(O)CC[C@@]4(C)C3CC[C@@]12C)C(C)C (some centres undefined),-7%
CC(C)(C)c1ccc(S(=O)(=O)/C=C\C#N)cc1,u
COc1cc(-c2c(OC)cccc2OC)cc2c1OCCN(C(=O)CCn1nc(C)cc1C)C2,-4%
CCCCCCCCCCCCCCCC[n+]1ccc(/C=C/c2c[nH]c3ccccc23)c2ccccc21,u
CN[C@H]1CCc2cc(OC)c(OC)c(OC)c2-c2ccc(OC)c(=O)cc21,6%
COCCn1c(=O)cnc2cnc(N3CCOCC3)nc21,-9%
CCCC(=O)NCCc1c(I)[nH]c2ccc(OC)cc12,-28%
CC1=C(C(=O)OCc2ccccc2)N2C(=O)[C@@H](NC(=O)OCc3ccccc3)[C@H]2SC1,-11%
COc1ccccc1-c1cncnc1-n1ccnc1,-14%
CCN(CC)CCOc1ccc2c(c1)C(=O)c1cc(OCCN(CC)CC)ccc1-2,-9%
Cc1cccc(C(=O)O[C@H]2[C@H](Cc3ccccc3)NS(=O)(=O)[C@H]3CC4C=C[C@]23O4)c1,u
O=C(N[C@@H](Cc1ccccc1)C(=O)CCl)OCc1ccccc1,u
COc1ccc(CNc2ccnc(-c3ccccc3OC)n2)c(OC)c1,-18%
COc1cccc(C(=O)CC2c3c(c(Br)c4c(c3OC)OCO4)CCN2C)c1 (centres undefined),-5%
CC(C(=O)O)C1CCC2C3CC=C4CC(O)CC[C@@]4(C)C3CC[C@]12C (some centres undefined),-3%
Nc1nc2c(ncn2C2OC(CO)CC2O)c(=O)[nH]1 (centres undefined),-7%
OC[C@H]1O[C@@H](n2cnc3c(NCc4ccccc4)ncnc32)[C@H](O)[C@@H]1O,-10%
Cc1noc(C)c1-c1nccc(NCc2cccnc2)n1,-15%
CC(CCC(=O)O)C1CCC2C3CC[C@@H]4CCCC[C@@]4(C)C3CC[C@@]12C (some centres undefined),-25%
CCCCCCc1ccc(N2C[C@H](CCCCC)[C@@H](CC(=O)NCc3ccc(OC)cc3)C2=O)cc1,u
COc1ccc(NC(=O)N2CC3(CCN(C(=O)c4cccn4C)CC3)C2)cc1,-25%
CC(=O)Oc1c(-c2ccccc2)oc2c(CC=C(C)C)c3c(c(OC(C)=O)c2c1=O)C=CC(C)(C)O3,1%
CC(C)(O/N=C(\C(=O)N[C@@H]1C(=O)N2C(C(=O)[O-])=C(C[n+]3ccccc3)CS[C@H]12)c1csc(N)n1)C(=O)O,18%[56.6 µM]
Cc1onc(-c2c(Cl)cccc2Cl)c1C(=O)N[C@@H]1C(=O)N2[C@@H]1SC(C)(C)[C@@H]2C(=O)O,25%
Cc1cccc(CN2C[C@H](Sc3ccccn3)C[C@H]2C(=O)Nc2ccc3sc(C)nc3c2)c1,-2%

# Rewritten bar-delimited: part of the list above.
Molecule | EPAC2 ant val
COc1cccc(C(=O)CC2c3c(c(Br)c4c(c3OC)OCO4)CCN2C)c1 (centres undefined) | -5%
COc1cc(-c2c(OC)cccc2OC)cc2c1OCCN(C(=O)CCn1nc(C)cc1C)C2 | -4%
CC(=O)Oc1c(-c2ccccc2)oc2c(CC=C(C)C)c3c(c(OC(C)=O)c2c1=O)C=CC(C)(C)O3 | 1%
Cc1onc(-c2c(Cl)cccc2Cl)c1C(=O)N[C@@H]1C(=O)N2[C@@H]1SC(C)(C)[C@@H]2C(=O)O | 25%
CC(CCC(=O)O)C1CCC2C3CC[C@@H]4CCCC[C@@]4(C)C3CC[C@@]12C (some centres undefined) | -25%
Cc1cccc(C(=O)O[C@H]2[C@H](Cc3ccccc3)NS(=O)(=O)[C@H]3CC4C=C[C@]23O4)c1 | u

# Other compounds follow:
SMILES,EPAC2 ant val
CC(C)(N=NC(C)(C)C(=N)N)C(=N)N,-12%
CN(C)Cc1ccccc1-c1nc(NC2CCNCC2)c2ccccc2n1,-14%
COc1ncc2nc(CCc3ccccc3)c(=O)n(C)c2n1,u
Cn1c(=O)c(-c2cccs2)nc2cnc(N3CCOCC3)nc21,-19%
CC(C)(C#N)c1cc(Cn2cncn2)cc(C(C)(C)C#N)c1,-8%
COc1ccc(C(=O)NCc2nc(-c3ccccc3NC(=O)c3cc(C)oc3C)oc2C)cc1F,-1%
Cc1ccc(C(=O)Nc2cccc(-c3nc(CNC(=O)C4CCCCC4)c(C)o3)c2)s1,-9%
COc1ccc(CNC(=O)[C@@H]2CC=C[C@@H]3CCN(C4CCCCC4)C(=O)[C@@H]32)cc1,6%
Brc1c(Br)c(Br)c2[nH]cnc2c1Br,-1%
COc1c(-c2ccccc2)oc2c(ccc3occc32)c1=O,4.5µM*
CCNc1ncc2nc(-c3ccc(Cl)cc3)c(=O)n(C3CC3)c2n1,-2%
COc1ccc(/C=C/c2cc(OC)c(OC)cc2CC[N+](C)(C)C)cc1,21%
C[C@@H]1CN(Cc2ccc3c(c2)CN(C(=O)c2ccc(Oc4ccccc4)o2)CCO3)C[C@H](C)O1,u
COc1ccc(NC(=O)N2CCC3(CC2)CCN(S(=O)(=O)c2ccccc2)CC3)cc1,-16%
CS(=O)(=O)N1CCC2(CCCN(C(=O)Nc3ccccc3)C2)CC1,-17%
COc1ccc(CN2CCCC(n3cc(C(=O)NC4CCCC4)nn3)C2)c(O)c1 (centres undefined),2%
C=C[C@@]1(C)CC(=O)[C@@]2(O)[C@@]3(C)[C@@H](O)CCC(C)(C)[C@@H]3[C@H](OC(=O)CCN(C)C)[C@H](OC(C)=O)[C@@]2(C)O1,-25%
Cc1cc(C)n(-c2ccc(C(=O)NCC3Cc4cc(-c5cnccn5)ccc4O3)cc2)n1 (centres undefined),-23%
Cn1cnc2c(ncn2[C@@H]2O[C@H](CO)[C@@H](O)[C@H]2O)c1=N,-4%
COCc1c(C(=O)NC2CCCCC2)cnn1-c1nccc(-c2ccccc2OC)n1,-15%
COc1ccc(C(=O)N2CCC3(CCCN(C(c4ccccc4)c4ccccc4)C3)CC2)cc1,-25%
O=C(Nc1ccccc1)N1CC[C@@]2(CCCN(C(=O)c3cccc(F)c3)C2)C1,-23%
CCS(=O)(=O)NCc1c(C)ncc2c1CCN(C(=O)c1ccc(F)cc1)C2,-24%
C[C@@H]1O[C@@H](O[C@H]2[C@H](Oc3cc(O)c4c(c3)O[C@H](c3ccc(O)cc3)CC4=O)O[C@H](CO)[C@@H](O)[C@@H]2O)[C@H](O)[C@H](O)[C@H]1O,-11%
CCOc1cc(N)c(Cl)cc1C(=O)NCC1CN(Cc2ccc(F)cc2)CCO1 (centres undefined),-7%

# (continued)
SMILES,EPAC2 ant val
CC(=O)N(CC(C)C(=O)O)c1c(I)cc(I)c(N)c1I (centres undefined),-24%[56.6 µM]
CC#CCOC(=O)C1=CCCN(C)C1,12%&-12%
COc1ccccc1-c1cc(N(C)Cc2ccco2)ncn1,u
N#Cc1cccc(NC(=O)N2CCCC3(CCN(C(=O)c4ccncc4)CC3)C2)c1,-10%
COC(=O)[C@@H]1N2C(=O)[C@@H](NC(=O)C(C)Oc3ccccc3)[C@H]2SC1(C)C (some centres undefined),5%
CCC1CN(CC(=O)NC(c2ccccn2)C(F)(F)F)Cc2cc(OC)ccc2O1 (centres undefined),0%
CCNc1ncc2nc(C)c(=O)n(C)c2n1,15%
CC(Oc1ccccc1)C(=O)NC1C(=O)N2C(C(=O)O)C(C)(C)S[C@@H]12 (some centres undefined),-5%
O=C[C@H](O)[C@@H](O)[C@H](O)[C@H](O)CO,18%
COc1cccc(CNC(=O)c2cnn(-c3ncc4c(n3)-c3ccccc3CCC4)c2C)c1OC,10%
COc1cccc(CNc2ncnc3sc(C(=O)N4CC5CCC4C5)c(C)c23)c1OC (centres undefined),-3%
COc1ccc(Oc2ncc3nc(-c4ccc(F)cc4)c(=O)n(C)c3n2)cc1,-15%

# From PubChem BioAssay
